HSD17B inhib: qHTS Assay for Inhibitors of HSD17B4, hydroxysteroid (17-beta) dehydrogenase 4. actives 7.6% (n = 75,000). recombinant HSD17B10, NADH fluorescence kinetic; many of its hits are not listed in these tables. Potency, µM (titrated, usually from 57.1 µM), for the others: at the top dose activity change, negative = inhibition, most hits filed as inhibitors. 3-hydroxyacyl-CoA dehydrogenase type-2 (Homo sapiens), Q99714; active = well fitted inhibition curve with a large enough effect; inconclusive = small, poorly fitted or top-dose-only effect; inactive = no such curve, though single readings can be large or run the other way;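 also: the protocol describes HADH2 (HSD17B10) and not the HSD17B4 of the title; nearly all actives have a fitted effect of over 70% in size; most hits overshoot -100% by far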
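Enzyme plus compound, 15 min room temperature; substrate mix added (NAD+ 1 mM, beta-hydroxybutyryl-CoA 90 uM final); plates read kinetically for NADH fluorescence. HADH2 was His-tagged, E. coli-derived, 20 nM.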
Numbers without * were called inactive; ? = inconclusive; [ ] = dose if it differs, or a comment. % is scaled to controls: 0 for no effect and ±100 for the full control effect; potency is read from the fitted curve at half-maximal effect.

No.	mol	HSD17B inhib
1	C#CCCCO/N=C1/C[C@@H](O)[C@@H](O)[C@@H]2[C@@H]3C(=O)N(Cc4ccc5c(c4)OCO5)C(=O)[C@H]3CC[C@@H]12	5%[11.4 µM]
2	OCCNCCCOc1cccc(Cl)c1Cl	23%
3	O=C(NCc1ccc2c(c1)OCO2)c1cccc(C(=O)NCc2ccc3c(c2)OCO3)c1	-14%
4	c1ccc(-c2ccccc2-c2nc(-c3cccnc3)no2)cc1	-15%
5	COC(=O)CN(C#N)c1nc(OC)nc(N(C)C)n1	-5%
6	CCc1ncc(C(O)c2cccc(OC)c2OC)n1C (stereo not drawn)	2%
7	C#CCCCO/N=C1/C[C@@H](O)[C@@H](O)[C@@H]2[C@@H]3C(=O)N(C(C)(C)C)C(=O)[C@H]3CC[C@@H]12	3%[11.4 µM]
8	COc1ccccc1-c1ccc2ncnc(NC3CC3)c2c1	-1%
9	CC(C)OC(=O)CSc1nnc(-c2ccco2)n1N	-6%
10	COc1cc(CN2CC(C)OC(C)C2)cc(OC)c1 (stereo not drawn)	0%
11	Cc1cc(C(=O)CN(Cc2ccc(F)cc2)S(=O)(=O)c2ccc3c(c2)OCCO3)c(C)n1C	-16%
12	COc1ccc(NC(=O)C2CCN(C(=O)NCc3ccccc3)CC2)cc1	3%
13	CN1CCN(c2oc(-c3ccco3)nc2S(=O)(=O)c2ccccc2)CC1	-14%
14	CCOC(=O)N1CCN(C(=O)c2cc(S(=O)(=O)N3CCCC3)cn2C)CC1	-4%
15	CC(C)CN(CC(C)C)C(=O)C12CCC(C)(C(=O)C1)C2(C)C (stereo not drawn)	-6%
16	CC(C)(C)C(=O)NC1CCN(S(=O)(=O)c2ccccc2F)CC1	12%
17	CCOc1ccc(C(O)c2nccn2Cc2ccccc2)cc1 (stereo not drawn)	-1%
18	CCCNC(=O)CS(=O)(=O)Cc1nc(-c2ccccc2C)oc1C	3%
19	O=C(c1csnn1)N1CCC[C@@]2(CCN(C(c3ccccc3)c3ccccc3)C2)C1	-2%
20	O=c1[nH]c2c(c3c1CCCC3)CCCC2	10%

Structures listed so far with four or more nitrogen atoms, in the order listed:
No.	mol	HSD17B inhib
5	COC(=O)CN(C#N)c1nc(OC)nc(N(C)C)n1	-5%
9	CC(C)OC(=O)CSc1nnc(-c2ccco2)n1N	-6%
14	CCOC(=O)N1CCN(C(=O)c2cc(S(=O)(=O)N3CCCC3)cn2C)CC1	-4%
19	O=C(c1csnn1)N1CCC[C@@]2(CCN(C(c3ccccc3)c3ccccc3)C2)C1	-2%

Reformatted as labelled records: part of the list above.
18	CCCNC(=O)CS(=O)(=O)Cc1nc(-c2ccccc2C)oc1C
  HSD17B inhib = 3%
3	O=C(NCc1ccc2c(c1)OCO2)c1cccc(C(=O)NCc2ccc3c(c2)OCO3)c1
  HSD17B inhib = -14%
2	OCCNCCCOc1cccc(Cl)c1Cl
  HSD17B inhib = 23%

Further structures.
No.	mol	HSD17B inhib
21	CCCCCC(=O)c1cc(CC(C(=O)OC)C(=O)OC)cc2cc(OC)c(OC)cc12	1%[11.4 µM]
22	O=C(COC(=O)c1ccc(S(=O)(=O)N2CCCC2)cc1)NCc1ccccc1	-1%
23	CCCCCCCCCCCC(CC1OC(=O)C1CCCCCC)OC(=O)C(CC(C)C)NC=O (stereo not drawn)	?
24	CCS(=O)(=O)CCSc1nc(C)cc(C)c1C#N	6%
25	CC1=C(C(=O)OC(C)C)C(c2c[nH]c3ccccc23)n2ncnc2N1 (stereo not drawn)	1%
26	CCOC(=O)c1cc(C#N)c(SCC(=O)c2cc(C#N)c(SC)nc2C)nc1C	11%
27	CC1(C)OC2C(CO)OC(n3cnc4c(=O)[nH]cnc43)C2O1 (stereo not drawn)	-1%
28	CC(C)c1nnc(NC(=O)C2CCN(c3nc4ccccc4s3)CC2)s1	-6%
29	CC(=O)Nc1c(O)n(C)c2ccccc12	-5%
30	Nc1cccc(C(F)(F)F)c1	4%
31	O=C1CCCC(O)=C1C1C2=C(CCCC2=O)Oc2ccccc21 (stereo not drawn)	3%
32	Cc1onc(-c2c(Cl)cccc2Cl)c1C(=O)Nc1ccc2c(c1)OCO2	3%
33	O=C(C1CCN(S(=O)(=O)c2cccc3nsnc23)CC1)N1CCN(c2ccccc2F)CC1	2%
34	c1ccc(NCc2nnc3n2CCCCC3)cc1	2%
35	Cc1ccc(S(=O)(=O)NC(C)C(c2cccs2)N2CCN(C)CC2)cc1 (stereo not drawn)	5%
36	O=C(Nc1cccc(Oc2ccc3c(c2)C(=O)NC3=O)c1)c1ccco1	5%
37	Cc1ccc(S(=O)(=O)N2CCN(Cc3cccc(C)c3O)CC2)cc1	9%
38	c1ccc2c(NC3CC3)nc(-c3ccoc3)nc2c1	-10%
39	CCCOc1ccc(CCN2CCC(=O)NC2=O)cc1C	1%
40	Cc1ccc(NC(=O)C2CCCN(S(=O)(=O)c3ccc4c(c3)oc(=O)n4C)C2)nc1 (stereo not drawn)	12%
41	Cc1ccc(NC(=O)CS(=O)CC(=O)NCCCN(C)c2ccccc2)cc1 (stereo not drawn)	-5%
42	CCOC(=O)OCC1OC(c2ccccc2)C=CC1OC(=O)OCC (stereo not drawn)	0%[11.4 µM]
43	CCCC(NC(=O)c1ccccc1)c1nc2ccccc2n1Cc1ccc(C(=O)OC)o1 (stereo not drawn)	7%
44	Cc1ccc(NC2c3ncccc3C(=O)N2Cc2ccc(F)cc2)cc1 (stereo not drawn)	-23%
45	CCCCCCN(C(=O)CCCCCN1C(=O)NC(c2ccc(-c3ccccc3)cc2)C(C(=O)OCc2ccccc2)=C1C)C(C(=O)NCCCC)c1ccccn1 (stereo not drawn)	-6%
46	O=C(NC1CCCCC1)C1CCN(S(=O)(=O)c2cccc3cccnc23)CC1	3%
47	CN(CC(=O)Nn1cnnc1)S(=O)(=O)c1cc(Cl)ccc1Cl	6%
48	O=C(Nc1ccc2c(c1)nc1n2CCOC1)C1CCCCC1	13%
49	CC1CN(C(=O)c2cnn3c(C(F)F)cc(-c4ccccc4)nc23)CC(C)O1 (stereo not drawn)	?
50	CCN(CC)S(=O)(=O)c1ccc(NC(=O)c2ccccn2)cc1	7%
51	C=CCOC(=O)C1CC=CCC1C(=O)Oc1ccc(F)cc1F (stereo not drawn)	-7%
52	CCOC(=O)N1CCC(=C(C#N)C(=O)Nc2cc(OC)ccc2OC)CC1	4%
53	Cc1ccc2nc(NC(=O)COC(=O)c3ccco3)sc2c1	-8%
54	O=C(Nc1nccs1)C1CCCN1S(=O)(=O)c1ccc(Cl)cc1 (stereo not drawn)	-1%
55	Cc1ccsc1/C=N/n1cnc2sc(C)c(C)c2c1=O	-3%
56	CC1CN(c2nc3c(c(=O)n(C)c(=O)n3C)n2Cc2c(Cl)cccc2Cl)CC(C)O1 (stereo not drawn)	13%
57	CCn1c(SCC(=O)c2ccc(O)c(O)c2)nnc1-c1ccccc1OC	-25%
58	CCS(=O)(=O)N1CCC(C(=O)N2CCN(c3ccccc3)CC2)CC1	5%
59	Cc1ccc(C(CCN)c2ccco2)cc1 (stereo not drawn)	0%
60	Cc1nccc2[nH]c(=O)c(C(=O)NCCCN(C)C3CCCCC3)cc12	6%
61	O=C(CN(C1CC1)S(=O)(=O)c1ccc(S(=O)(=O)N2CCCCCC2)cc1)Nc1ccccc1	7%
62	CC1CCCCN1C(=O)Cn1c(=O)n(CCC(=O)NCc2ccco2)c(=O)c2sccc21 (stereo not drawn)	-2%
63	COc1cccc(OC)c1C(=O)N1CCN(c2ccccn2)CC1	40µM*
64	CCCOC(=O)NC(CC)COC(=O)Nc1cc(C)ccc1C (stereo not drawn)	-5%
65	CCOC(=O)c1c(C)oc2ccc(NS(=O)(=O)c3ccc4c5c(cccc35)C(=O)N4)cc12	-17%
66	Cc1ccc(NCc2nnc(SCC(=O)c3ccccc3)n2Cc2ccco2)c(C)c1	?
67	O=C(Cn1cc2c(n1)CCCCC2)N1CCc2ccccc2C1	0%
68	CCOC(=O)CN1CC23C=CC(O2)C(C(=O)N2CCN(c4ccc(F)cc4)CC2)C3C1=O (stereo not drawn)	-8%
69	COc1cccc(-c2csc(N3CCN(Cc4ccccc4)CC3)n2)c1	-20%
70	Cc1noc(C)c1-c1cc(NC2CCNCC2)ncn1	?
71	Cn1c(=O)[nH]c(=O)c2c1nc(OC(=O)c1ccccc1)n2CC(O)COc1ccc(F)cc1 (stereo not drawn)	-4%
72	CO/N=C(\C(=O)N[C@@H]1C(=O)N2C(C(=O)O)=C(COC(N)=O)CS[C@@H]12)c1ccco1	-4%[25.6 µM]
73	O=C(O)CCN(CCC(=O)O)S(=O)(=O)c1ccccc1	4%
74	O=C(OC(C(=O)NCC1CCCO1)c1ccccc1F)c1ccco1 (stereo not drawn)	2%
75	COC(=O)COc1nc(C)c(Br)c(OC)n1	1%
76	CCOC(=O)c1c(NC(=O)CN(CC)CC)sc2c1CCC2	-9%
77	CC(=O)c1cccc(NC(=O)CN(c2ccc(C)cc2)S(=O)(=O)c2cccc3nonc23)c1	0%
78	O=c1c2ccccc2nc(SCc2cn3ccsc3n2)n1-c1ccccc1F	-2%
79	CCOc1ccc(C(=O)Nc2ccc(N3CCCC3)cc2)cc1	-6%
80	O=C(CC1N=C2c3ccccc3N=C(SCc3ccc(F)cc3)N2C1=O)NCc1ccco1 (stereo not drawn)	?

(further entries)
No.	mol	HSD17B inhib
81	COc1ccccc1C1CC(c2ccc(Cl)cc2Cl)Nc2nc(N)nn21 (stereo not drawn)	-5%
82	CC1=C(C(=O)OCCOC(C)C)C(c2cc3c(cc2Br)OCO3)C2=C(CCCC2=O)N1 (stereo not drawn)	?
83	O=S(=O)(Nc1nc2ccccc2nc1Nc1ccc2c(c1)OCCO2)c1cccs1	32µM*
84	COc1ccc(N2CCN(C(c3cccc(OC)c3OC)c3nnnn3C3CCCC3)CC2)cc1 (stereo not drawn)	-3%
85	Cc1ccc(CS(=O)(=O)CCC(=O)NCc2ccccn2)cc1	3%
86	Cc1ccc(OCC(=O)Nc2cccc(O)c2)cc1C	-10%
87	Cc1ccc(-n2nc3c(c2NC(=O)c2ccc(OC(C)C)cc2)CS(=O)C3)cc1 (stereo not drawn)	17%
88	CCCNCc1cc(OCC)c(OCC(N)=O)cc1Br	0%
89	CCOc1ccc(NC(=O)CN2CCN(CC(=O)Nc3ccc4c(c3)OCCO4)CC2)cc1	7%
90	CCCCC1CC(CSc2ncn[nH]2)OC1=O (stereo not drawn)	11%
91	CN(C)CCC(=O)[C@@]1(O)CC[C@H]2[C@H]3CC=C4C[C@@H](O)CC[C@]4(C)[C@H]3CC[C@]21C	-6%[11.4 µM]
92	CCc1c(C)nc2ncnn2c1N1CCC(C(=O)N2CCN(c3ccc(F)cc3)CC2)CC1	1%
93	Cc1cc2nc(-c3cccc(NC(=O)c4ccc(Br)o4)c3C)oc2cc1C	-9%
94	CN(C)/C=N/c1c(C#N)cnn1-c1ccccc1	9%
95	CCc1c(C)nc2c(C#N)c(C)[nH]n2c1=O	-12%
96	CCOC(=O)N1CCN(C(=O)c2ccc3c(=O)n(Cc4ccccc4)c(=S)[nH]c3c2)CC1	-5%
97	O=C(c1cc(C(F)(F)F)cc(C(F)(F)F)c1)N1CCC2(CC1)CN(Cc1ccccc1)C2	-3%
98	COc1ccccc1CNc1ncnc2ccc(-c3cccnc3)cc12	32µM*
99	COc1cc2c(cc1O)C(SC)=NC(C)(C)C2	-2%
100	CCOc1ccc(NC(=O)CN2C(=O)C3CCCN3C2=O)cc1 (stereo not drawn)	8%
101	CC(=O)Nc1ccc(S(=O)(=O)N(C2=NCC(C)S2)c2ccccc2)cc1 (stereo not drawn)	3%
102	COC(=O)c1ccc(NC(=O)Nc2ccc(F)cc2)cc1	6%
103	c1ccc(CSCCc2ccncc2)cc1	2%[11.4 µM]
104	Cc1ccc2[nH]c3c(=O)n(CCCN4CCN(C)CC4)cnc3c2c1	10µM*
105	O=C(Nc1ccc(Nc2ccccc2)cc1)c1ccco1	5%
106	CC(C)CCNC(=O)NC(=O)CSc1nnc(-c2ccccc2Br)o1	-1%
107	COc1ccc(-c2nnc3ccc(SCC(N)=O)nn23)cc1OC	-6%
108	O=c1oc2ccccc2n1CCn1c2ccccc2c2nc3ccccc3nc21	?
109	CC(C)(C)OC(=O)N1CCC(C(=O)O)CC1	-5%
110	C=CC1=C(C(=O)O)N2C(=O)[C@@H](NC(=O)/C(=N\OCC(=O)O)c3csc(N)n3)[C@@H]2SC1	-2%[25.6 µM]
111	Cc1cc(Cl)ccc1OCC(=O)N1CCCCC1	1%
112	CC(C)OC(=O)CSc1nnc(-c2cnccn2)n1-c1ccccc1	-8%
113	CN(C)CCCOC(=O)Cc1ccc(Cl)cc1	1%
114	CC(C)(C)NC(=O)C(c1ccccc1F)N(Cc1ccco1)C(=O)c1csnn1 (stereo not drawn)	-9%
115	Cc1ccccc1-c1ccc2ncnc(-n3ccnc3)c2c1	?
116	Cc1ccc2oc(=O)c3cnn(CC(=O)Nc4ccccc4N4CCN(C)CC4)c3c2c1	2%
117	Cc1ccc(NC(=O)CN(C)S(=O)(=O)c2cccs2)cc1F	-7%
118	CCOC(=O)C1=C(C)NC(SCC(=O)OC)=C(C#N)C1c1ccc(C(=O)OC)cc1 (stereo not drawn)	?
119	CCCOc1ccccc1C(=O)N(Cc1ccco1)C1CCS(=O)(=O)C1 (stereo not drawn)	11%
120	Cc1ccc(-n2nnnc2SC(C)C(N)=O)c(C)c1 (stereo not drawn)	2%

Screening results from PubChem.

This is a subset; the hit share may differ from the screen's.
